# Source: PubChem
# NS1 inh: inhibitors of influenza NS1 protein function; Potency, µM (top dose mostly 46.1 µM), inactives show at the top dose activity, positive = more growth; 270,000 compounds, 0.4% hits; AID 2326; S. cerevisiae slowed by influenza A NS1, growth recovery by OD600; active means well fitted rising curve with a large enough effect; inconclusive means small, poorly fitted or top-dose-only effect; inactive means no such curve, though single readings can be large or run the other way; note: nearly all actives have a fitted effect of over 50% in size
#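 A cell-based growth assay was used: compounds that relieve NS1-induced slow growth of budding yeast raise OD600. Assay medium was yeast nitrogen base with ammonium sulphate and -URA supplement, pH 6.0, with 2% galactose.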
# SARS PLP yeast: inhibitors of SARS-CoV papain-like protease in yeast. 330,000 compounds, 0.19% hits. Potency, µM (series often up to 32.9 µM), inactives show at the top dose activity, positive = growth rescue. S. cerevisiae expressing SARS-CoV PLpro, growth rescue; control for the full effect not named in the record; active means well fitted rising curve with a large enough effect; inconclusive means small, poorly fitted or top-dose-only effect; inactive means no such curve, though single readings can be large or run the other way; note: 0% is about no effect; nearly all actives have a fitted effect of over 55% in size; growth read by luminescence after 48 h
# Marburg entry inh: Marburg virus entry inhibition; Potency, µM (doses to about 37.8 µM), inactives show at the top dose activity change, negative = inhibition, most hits filed as inhibitors; Marburg virus pseudotyped entry inhibition, cell reporter; control for the full effect not named in the record; about a third of the inactives were read at about 46 µM; 300,000 compounds, 1.8% hits; active = well fitted inhibition curve with a large enough effect; inconclusive = small, poorly fitted or top-dose-only effect, or effect the other way; inactive = flat fitted curve, though single readings scatter; tested in HEK293 cells; about a fifth of its hits are not listed in these tables; note: % is set by controls: 0 for no effect and ±100 for the full control effect; luciferase read-out
# Cruzain noTriton: cruzain (T. cruzi) inhibition without detergent; P25779; purified cruzain, Z-FR-AMC fluorescence, no detergent; Potency, µM, without a hit: max response, negative = inhibition, actives largely listed as inhibitors; 200,000 compounds, 2.3% hits; AID 1476;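 note: plate controls were enzyme without inhibitor for no effect and buffer without enzyme for full effect; nearly all actives have a fitted effect of over 40% in size; top concentration of the series not given in the record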
# Target sequence (P25779 123-467 limits assumed): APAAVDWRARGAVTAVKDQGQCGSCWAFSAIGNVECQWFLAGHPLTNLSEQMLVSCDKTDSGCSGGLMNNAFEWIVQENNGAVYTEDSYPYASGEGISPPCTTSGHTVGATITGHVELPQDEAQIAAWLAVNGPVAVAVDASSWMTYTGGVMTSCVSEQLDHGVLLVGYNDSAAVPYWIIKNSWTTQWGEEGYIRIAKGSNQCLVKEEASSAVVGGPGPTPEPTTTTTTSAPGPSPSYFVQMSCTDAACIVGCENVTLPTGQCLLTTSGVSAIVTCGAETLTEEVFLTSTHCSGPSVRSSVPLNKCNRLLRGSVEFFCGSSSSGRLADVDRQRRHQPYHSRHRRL
#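 Detergent-free condition (0.00005% Triton X-100) in acetate buffer pH 5.5 with DTT. 1.5 nM enzyme and compound were pre-mixed 15 min, then 2 uM Z-FR-AMC substrate added; reaction progress from fluorescence change between first and third reads (60 s).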
# Cruzain inh Det: inhibitors of Trypanosoma cruzi cruzain with detergent. purified cruzain, Z-FR-AMC fluorescence, 0.01% Triton. AID 1478. Potency, µM, for inactives: max response, negative = inhibition, usual class: inhibitors. 200,000 compounds, 0.43% hits;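 note: plate controls were neutral wells for no effect and buffer without enzyme for full effect; nearly all actives have a fitted effect of over 40% in size; top concentration of the series not given in the record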
#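 Cruzain (1.5 nM) preincubated 15 min at RT with compound in 100 mM sodium acetate pH 5.5, 5 mM DTT, 0.01% Triton X-100. Reaction started with 2 uM Z-FR-AMC; AMC fluorescence (ex 360/em 450 nm) change over 60 s gave rate.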
# StopGo reporter: FMDV 2A StopGo reporter, luciferase signal. AID 1159524. Potency, µM (series often up to 57.9 µM), without a hit: at the highest dose signal change, negative = less light. 410,000 compounds, 1.2% hits. human cells with a luciferase reporter of 2A StopGo recoding; control for the full effect not named in the record; active = well fitted falling curve with a large enough effect; inconclusive = small, poorly fitted or top-dose-only effect; inactive = no such curve, though single readings can be large or run the other way; tested in HEK293T cells; note: % is set by controls: 0 for no effect and ±100 for the full control effect; nearly all actives have a fitted effect of over 45% in size; luciferase light after 4 h
# LASV entry inh: inhibitors of Lassa virus binding or cell entry. Lassa virus pseudotype entry inhibition, cell reporter; control for the full effect not named in the record. Potency, µM (series often up to 37.9 µM), for the others: at the top dose activity change, negative = inhibition, actives largely listed as inhibitors. 300,000 compounds, 1.2% hits; active means well fitted inhibition curve with a large enough effect; inconclusive means small, poorly fitted or top-dose-only effect, or effect the other way; inactive means flat fitted curve, though single readings scatter; tested in HEK293 cells; note: % is set by controls: 0 for no effect and ±100 for the full control effect; nearly all actives have a fitted effect of over 50% in size; luciferase read-out
# RE007 growth inh: less growth of the S. pombe RE007 Vpr strain | S. pombe RE007 Vpr strain, BacTiter-Glo ATP luminescence, 24 h; control for the full effect not named in the record | Potency, µM (series often up to 92.2 µM), for the others: top-dose activity change, negative = less growth | 360,000 compounds, 0.21% hits | AID 651644; active = well fitted falling curve with a large enough effect; inconclusive = small, poorly fitted or top-dose-only effect; inactive = no such curve, though single readings can be large or run the other way;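 note: % is set by controls: 0 for no effect and ±100 for the full control effect; nearly all actives have a fitted effect of over 50% in size; the assay follows cell death caused by Vpr and the record does not say whether a fall means rescue or toxicity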
#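 Fission yeast strain RE007, carrying one chromosomally integrated HIV-1 vpr copy, was seeded at OD 0.01 in PMG+AL medium with 23 nL pinned compound. After 24 h at 30 °C and 99% humidity, viability was read by BacTiter-Glo luminescence.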
# * marks the source's active call; other numbers are inactive results; ? = inconclusive; · = not tested or not shown; & = joins results of further samples; [ ] = remark or other dose. Unless noted, calls come from the whole dose curve; as a rule, active = well fitted curve in the direction sought with a large enough effect; inconclusive = small, poorly fitted or top-dose-only effect, or another doubt; inactive = no such curve, though single readings can be large; an effect the other way counts as inactive or inconclusive. Potency is the fitted concentration of half-maximal effect.
SMILES,NS1 inh,SARS PLP yeast,Marburg entry inh,Cruzain noTriton,Cruzain inh Det,StopGo reporter,LASV entry inh,RE007 growth inh
CCn1c2ccc(F)cc2c2nnc(NN)nc21,11%,10%,-2%,-12%,-8.0%,-8%,-7%,7%
COc1ccc(CCCc2nnc(SCc3nc4ccccc4c(=O)[nH]3)n2C)c(C)c1,4%,22%,7%,·,·,-22%,·,-3%
COC(=O)/C=C1/S/C(=N/N=C/c2ccco2)NC1=O,-35%,-3%,-4%,·,·,-14%,21%,27%
CCOC(=O)c1nc(C)sc1-c1ccnn1S(=O)(=O)c1cccc(Cl)c1,-5%,0%,0%[14.2 µM],·,·,-22%,2%,9%
Cc1n[nH]c(C)c1N1C(=O)c2cccc3cc(Br)cc(c23)C1=O,-41%,13%,0%,-7%,-1.8%,-16%,-9%,0%
CC(C)c1cccc(C(C)C)c1NC(=O)COC(=O)C1CCC1,·,-1%,-19%[46.1 µM],·,·,-13%,-4%,-8%
COc1ccc(Br)cc1CN(C)C(C)C(=O)Nc1cccc(C(C)=O)c1 (stereo unspecified),·,-6%,?,·,·,?,-23%,2%
COc1ccccc1CNC(=O)c1cccc(C)c1[N+](=O)[O-],-3%,18%,14%,-7%,2.1%,-4%,-4%,·
CNC(=O)CSc1nnnn1CCCOC,4%,1%,14%,-7%,4.6%,4%,-4%,-12%
CCn1c(SCC(=O)Nc2ccc3c(c2)OCCO3)nnc1-c1cccnc1,-10%,10%,?,·,·,-5%,-5%,-12%
Cc1ccc(C)c(/C=C2\N=C(c3ccccc3F)OC2=O)c1,2%,-4%,·,·,·,-8%,·,4%
CCN(CC)CCCNC(=O)CSc1nc(-c2cccs2)cc(C(F)(F)F)n1,-2%,1%,-28%[46.1 µM],·,·,-10%,?,-10%
CCc1nnc(NC(=O)CSc2nc3c([nH]c4ccccc43)c(=O)n2-c2ccc(Cl)cc2)s1,·,·,·,-2%,-1.6%,-8%,7.9µM*,·
CSc1ccccc1OCc1cc(C(=O)N(C)Cc2ccncn2)no1,0%,2%,27%,·,·,16%,-4%,-9%
Cc1ccc(CNC(=O)c2cc3c(=O)n(C)c4ccccc4c3n2C)o1,-5%,-1%,1%,19%,-2.5%,-12%,·,23%
CC1CCCCC1NC(=O)CSc1nnc(-c2ccco2)n1C (stereo unspecified),·,0%,·,·,·,-19%,12%,16%
O=c1cc(CS(=O)(=O)c2ccccc2)nc(-c2ccncc2)[nH]1,·,1%,?,·,·,8%,0%,8%
NC1=NC2=C(CCCC2)C2(CCCCC2)S1,-10%,6%,?,-1%,4.7%,?,?,4%
CCOC(=O)CN(C(=O)COC(=O)C1=NNC(=O)CC1)c1ccc(F)cc1,·,4%,5%[46.1 µM],·,·,18%,-1%[46.1 µM],-2%
COc1ccc(/C=C(\C#N)C(=O)Nc2cc(C)c(Cl)cc2OC)cc1O,1%,0%,·,·,·,-18%,·,2%
CCOC(=O)CSCc1cn2cc(Cl)ccc2n1,-3%,5%,10%,-6%,2.7%,32%[activator],-11%,1%
Cn1c(SCC(=O)NC(=O)Cc2ccccc2)nnc1-c1ccc(F)cc1,·,17%,11%[46.1 µM],·,·,0%,11%[46.1 µM],31%
CCCCCNC(=O)c1ccc2c(=O)n(CCCN3CCCC3=O)c(=S)[nH]c2c1,·,1%,?,·,·,?,-12%,17%
CC1(C)CC2CC(C)(CN2S(=O)(=O)c2ccc(C(=O)Nc3ccc(S(=O)(=O)N4CCOCC4)cc3)cc2)C1 (stereo unspecified),5%,8%,2.8µM*,-2%,-5.4%,-17%,3.5µM*,-10%
CCOC(=O)/C(C#N)=C/C=C1/C=CC=CN1C,-3%,-1%,?,·,·,-4%,0%[46.1 µM],6%
COc1ccccc1NC(=O)/C(C#N)=C/c1ccc(OCCN2CCOCC2)c(OC)c1,9%,-5%,-1%,·,·,-23%,7%,1%
COc1ccc(Cn2c(C(C)C)nc3sc4ccccc4c(=O)c3c2=O)cc1,0%,0%,-8%[46.1 µM],·,·,?,17%[46.1 µM],-5%
CCOC(=O)C1C(=O)CC(=O)CC1CC(C)SCC (stereo unspecified),?,10%,16%,0%,2.2%,-20%,2%,11%
O=C(CSc1nnc(CNC(=O)c2cccs2)o1)Nc1ccccc1F,1%,0%,3%[46.1 µM],·,·,5%,11%[46.1 µM],18%
N/C(=N\OC(=O)c1ccc(Cl)cc1)c1[nH]ncc1Br,-3%,-1%,·,·,·,-24%,·,?
CC(Sc1n[nH]c(N)n1)C(=O)NC1CCCCC1C (stereo unspecified),10%,-2%,·,·,·,-16%,·,-4%
O=C(NCCN1C(=O)S/C(=C\c2ccccc2F)C1=O)C1CCCN1C(=O)c1cccs1 (stereo unspecified),-10%,18%,?,20%,-4.5%,-9%,4%,-8%
Cc1cc2ncc(Cl)nc2cc1C,4%,6%,11%,8%,-3.2%,22%,6%,-8%
O=C(NCC1CCCO1)c1nn2c(C(F)(F)F)cc(-c3ccco3)nc2c1Cl (stereo unspecified),·,·,8%,·,·,-13%,-4%,14%
COc1cccc(NC(=O)c2ncc(Cl)c(Cl)c2Cl)c1,·,0%,-27%,·,·,28%,?,-9%
CN(C)CCCN(C(=O)c1ccc(S(=O)(=O)N2CCCCC2)cc1)c1nc2cc3c(cc2s1)OCO3,3%,1%,?,·,·,0%,?,3%
COc1ccc(-c2ccc(C(C)=O)cc2)cc1[C@H]1[C@H]2C=CC[C@@H](C)[C@@H]2C(=O)N1Cc1ccccc1,?,0%,·,·,·,9%,·,3%
COc1[nH]c2ccc(F)cc2c1C(=O)OCC1CCN(CCNS(C)(=O)=O)CC1,-15%,·,?,-10%&6%,-3.9%&3.0%,0%&-21%,·,-13%[18.4 µM]
S=C(Nc1ccc(Cl)cc1)N1CCN(Cc2ccccc2)CC1,1%,-1%,-9%[46.1 µM],·,·,-18%,?,-13%
O=C1Nc2cc(C(=O)N3CCC(N4CCCCC4)CC3)ccc2S/C1=C\c1ccccc1,14%,-6%,·,·,·,-24%,·,-7%
CCn1cc(/C=N/NC(=O)COc2cccc3cccnc23)c2ccccc21,2%,1%,?,?,-3.8%,-20%,?,1%
CN1C(=O)C2(SCC(=O)N2c2ccc(F)cc2)c2ccccc21 (stereo unspecified),·,·,·,6%,-2.6%,-12%,?,·
COc1ccc2c(c1)CCc1c(C(=O)NC3CCCCC3)noc1-2,5%,17%,2%,-1%,-8.6%,77%[activator],-28%,-16%
CN=C(SCc1cc2c(cc1Cl)OCO2)c1c(O)n(C)c(=O)n(C)c1=O,-128%,-7%,3%,-11%,-0.8%,?,25%,-1%
O=C(Nc1ccc(Cl)cc1Cl)N1CCN(c2ncccn2)CC1,-4%,-3%,·,·,·,18%,·,-7%
Cc1ccc(C)c(NC(=O)CN(C)C(=O)C2CCN(C(=O)Nc3ccccc3)CC2)c1,·,12%,28%[46.1 µM],·,·,4%,-2%,-7%
COc1cccc(S(=O)(=O)NCc2ccc(C(=O)Nc3cccc(Cl)c3)cc2)c1,5%,-1%,?,6%,-5.6%,25µM*,?,-17%
CN(C)S(=O)(=O)c1cccc(N=C2NN=C(c3ccccc3)CS2)c1,26%,17%,?,32µM*,-2.6%,?,?,0%
Nc1ccc(-c2nc3ccccc3s2)cn1,-45%,-2%,?,·,·,22%,·,-15%
Cc1ccc(SCc2cc(=O)c3c(=O)n(-c4ccccc4)[nH]c3[nH]2)cc1,·,0%,?,·,·,-8%,18%,-3%
c1ccc(CN2CCN(c3nc4ccccc4s3)CC2)cc1,0%,0%,?,·,·,0%,?,-10%
COc1cc(CNCCc2c[nH]c3ccccc23)cc(Cl)c1OCC(N)=O,3%,5%,?,·,·,11%,3%,-10%
O=C(CCS(=O)(=O)c1ccccc1Cl)NCc1ccc(F)cc1,10%,0%,·,·,·,-18%,·,-13%
CCN(CC)S(=O)(=O)c1ccc(C(=O)N(c2ccc(C)cc2)C2C=CS(=O)(=O)C2)cc1 (stereo unspecified),·,6%,8%[46.1 µM],·,·,3%,2%[46.1 µM],4%
CCCc1nnc(NC(=O)CC(=O)Nc2ccccc2C(=O)O)s1,3%,14%,?,-5%,2.6%,-16%,?,-5%
COc1ccc(OCC(=O)Nc2cc3c(cc2C(=O)O)OCCCO3)cc1,-23%,0%,22%[46.1 µM],·,·,3%,21%[46.1 µM],1%
CC(=O)Nc1ccc(S(=O)(=O)N[C@H](C(=O)O)C(C)C)cc1,-11%,-2%,19%,-3%,1.8%,0%,1%,19%
COc1cc(OC)cc(C(=O)N/N=C2/SCC(=O)N2Cc2ccco2)c1,·,1%,-12%,·,·,-1%,2%,-24%
COC(=O)c1sc(-c2ccccc2)cc1NC(=O)c1cc(OC)cc(OC)c1,4%,4%,-3%,-5%,-4.0%,-22%,14%,13%
COc1ccc(S(=O)(=O)N2CCCC2CNC(=O)C(=O)NC2CCCCCC2)cc1 (stereo unspecified),·,7%,5%[46.1 µM],·,·,18%,16%,-18%
# The list continues:
SMILES,NS1 inh,SARS PLP yeast,Marburg entry inh,Cruzain noTriton,Cruzain inh Det,StopGo reporter,LASV entry inh,RE007 growth inh
Fc1cccc(/C=N/Nc2nncc3ccccc23)c1,-8%,-7%,·,·,·,-6%,·,?
CC(C)(CNC(=O)C1CCN(S(=O)(=O)c2cc([N+](=O)[O-])ccc2Cl)CC1)N1CCOCC1,·,-6%,-7%,·,·,-5%,14%,2%
O=C(NC1(C(F)(F)F)NC(=O)N(Cc2cccnc2)C1=O)c1ccccc1Cl (stereo unspecified),-7%,-3%,-12%,-2%,5.0%,-13%,16%,6%
COc1ccc(N(CC(=O)N2CCCC2)S(=O)(=O)c2ccc(NC(C)=O)cc2)cc1,2%,11%,2%[46.1 µM],·,·,11%,1%,17%
CC(=O)c1ccc(NC2=NS(=O)(=O)c3ccccc32)cc1,·,·,?,5%,3.7%,29%,?,·
Cc1ccccc1NC(=O)CSc1nc2ccccc2c(=O)n1CC1CCCO1 (stereo unspecified),-8%,1%,5%[46.1 µM],·,·,18%,-5%[46.1 µM],9%
CCc1ccccc1NC(=O)C(=O)NCCc1sc(-c2cccc(C)c2)nc1C,·,·,·,11%,-8.0%,-4%,-30%[46.1 µM],·

# Rows were taken by chance; any-hit rate near 4.7%.
